Source: PubChem (Broad Institute)
A1 inhib = blocks A1 activity. 21,000 compounds, 0.51% hits. AID 2241. caspase activation, % (test concentration not listed). MEF A1-2A-BIM cells, caspase-Glo luminescence, 3 h; percent of clofoctol signal, DMSO as zero;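 active = most replicate scores above 10, or exactly half above 10 with mean activity above 10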;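 note: effector caspase 3 and 7 activity cleaving a DEVD luciferin substrate; 50 nL library stock added to about 30 µL; numbers are from one replicate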
BJeLR viab HTS = BJeLR cell viability reduction. BJeLR fibroblasts viability, CellTiterGlo ATP luminescence, 48 h; HRASV12, hTERT and SV40 LT/ST transformed. viability loss activity score, % (concentration not given with the values). 30,000 compounds, 0.64% hits; in the data active = viability loss activity score above about 50%; about a fifth of its hits are not listed in these tables;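 note: higher score means fewer live cells and less ATP luminescence; stock transfer was 50 or 100 nL into about 30 µL; 0% = vehicle wells and 100% = a reference killing control; one replicate is shown; the record names a cut of 85%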
Numbers without * were called inactive; nt = not tested or not shown.

SMILES	A1 inhib	BJeLR viab HTS
COc1cccc(-c2cc(C(=O)NCC3CCCO3)on2)c1 (centres undefined)	-4.9	0.4
CC1(C)CC[C@]2(C(=O)O[C@@H]3O[C@H](CO)[C@@H](O)[C@H](O)[C@H]3O)CC[C@]3(C)C(=CCC4[C@@]5(C)C[C@H](O)[C@H](O[C@@H]6O[C@H](C(=O)O)[C@@H](O)[C@H](O)[C@H]6O)[C@@](C)(CO)C5CC[C@]43C)C2C1 (some centres undefined)	-0.4	2.2
C[C@@H]1CN([C@@H](C)CO)C(=O)c2cc(NS(=O)(=O)c3ccccc3)ccc2O[C@@H]1CN(C)Cc1ccc(C(=O)Nc2ccccc2N)cc1	nt	23
C[C@H]1CN([C@@H](C)CO)C(=O)c2cc(NC(=O)Nc3ccc(C(F)(F)F)cc3)ccc2O[C@@H]1CN(C)Cc1ccc(Oc2ccccc2)cc1	-0.4	-3.5
C[C@H](CO)N1C[C@H](C)[C@@H](CN(C)C(=O)Nc2ccc(C(F)(F)F)cc2)Oc2c(NC(=O)NC3CCCCC3)cccc2C1=O	nt	-0.7
C[C@H](CO)N1C[C@H](C)[C@H](CN(C)C(=O)Nc2ccc(F)cc2)Oc2c(NC(=O)Nc3ccccc3)cccc2C1=O	nt	-0.9
Cc1cc(C(=O)Nc2cccc3c2O[C@H](CN(C)Cc2ccc4c(c2)OCO4)[C@@H](C)CN([C@H](C)CO)C3=O)n(C)n1	nt	-5.2
C[C@H](CO)N1C[C@H](C)[C@@H](CN(C)Cc2ccc(C(F)(F)F)cc2)Oc2c(NC(=O)Nc3ccc(F)cc3)cccc2C1=O	nt	3.2
C[C@H](CO)N1C[C@H](C)[C@H](CN(C)Cc2ccc(C(=O)O)cc2)Oc2ccc(NC(=O)Nc3ccc(C(F)(F)F)cc3)cc2C1=O	-0.5	1.2
C[C@H]1CN([C@@H](C)CO)C(=O)c2cccc(NC(=O)c3cnccn3)c2O[C@@H]1CN(C)C(=O)NC1CCCCC1	nt	-0.3
COc1ccc(S(=O)(=O)N(C)C[C@H]2Oc3ccc(NS(=O)(=O)c4ccc(C)cc4)cc3C(=O)N([C@@H](C)CO)C[C@@H]2C)cc1	-0.7	0.4
C[C@@H]1CN([C@H](C)CO)C(=O)c2cc(NC(=O)Nc3ccc4c(c3)OCO4)ccc2O[C@H]1CN(C)Cc1ccc2c(c1)OCO2	-0.1	-0.3
Cc1ccc(S(=O)(=O)N2CC=C(C(=O)NC3CCCC3)CC2)cc1	0.6	-1.7
Cc1nn(C)c(C)c1S(=O)(=O)N1CCN(c2ccccc2)CC1	nt	2.2
COc1cc(C)c2c(c1)CCC1C2CCC2(C)C(O)CCC12 (centres undefined)	-0.4	2.0
C[C@@H]1CN([C@H](C)CO)C(=O)c2cccc(NC(=O)NC3CCCCC3)c2O[C@H]1CN(C)CC1CCCCC1	nt	8.0
C[C@H](CO)N1C[C@H](C)[C@@H](CN(C)S(=O)(=O)c2ccc(Cl)cc2)Oc2ccc(NC(=O)CCC(F)(F)F)cc2C1=O	0.1	-1.0
O=C(CCSc1nc(-c2ccco2)cc(C(F)(F)F)n1)N1CCCc2ccccc21	nt	-4.2
Cc1ccc(S(=O)(=O)Nc2ccc3c(c2)C(=O)N([C@H](C)CO)C[C@@H](C)[C@H](CN(C)Cc2ccc(C(=O)O)cc2)O3)cc1	-0.8	0.9
O=C(CCn1cccc1)N1CCc2ccccc21	0.6	1.8
COc1ccc(NC(=O)Nc2cccc3c2O[C@H](CN(C)CC2CCCCC2)[C@H](C)CN([C@@H](C)CO)C3=O)cc1	nt	0.1
COc1cc(S(C)=O)ccc1-c1nc2ccncc2[nH]1 (centres undefined)	-0.8	-3.8
CC(=O)c1cc2ccccc2oc1=O	-0.6	1.6
COc1ccc(OCCCC(=O)Nc2ccc(S(=O)(=O)Nc3nccs3)cc2)cc1	0.6	-1.5
O=C(NC=Nc1cccnc1)c1cccc(COCC(F)(F)F)c1	nt	2.5
O=C(NCCc1c[nH]c2ccccc12)C1CCCCC1	0.4	7.9
c1ccc(Oc2cccc(CSc3nc4ccccc4o3)c2)cc1	-2.2	1.7
C[C@H](CO)N1C[C@H](C)[C@@H](CN(C)S(=O)(=O)c2ccccc2)Oc2ccc(NS(=O)(=O)c3ccc(Cl)cc3)cc2C1=O	-0.3	0.8
Cc1sc2c(c1C)-c1nc(SCC(=O)C(C)(C)C)ncc1S(=O)(=O)N2C	-0.9	-0.1
COc1cc(-c2oc3cc(O)cc(O)c3c(=O)c2O)ccc1O	-3.6	-7.2
CCC1CCc2nc3sc(C(=O)Nc4cc(Cl)ccc4OC)c(N)c3cc2C1 (centres undefined)	0.1	-1.4
C[C@H]1CN([C@@H](C)CO)C(=O)c2cc(NC(=O)Cn3cnnn3)ccc2O[C@H]1CN(C)S(=O)(=O)c1cccs1	0.2	2.1
CNC[C@H]1Oc2c(NS(=O)(=O)c3cccs3)cccc2C(=O)N([C@H](C)CO)C[C@@H]1C	nt	0.7
Cc1ccc(S(=O)(=O)N(C)C[C@@H]2Oc3ccc(NC(=O)C4CC4)cc3C(=O)N([C@@H](C)CO)C[C@H]2C)cc1	0.7	-6.7
Cc1ccc(SCC(=O)Nc2nncs2)cc1	-1.3	2.0
C[C@@H]1CN([C@@H](C)CO)C(=O)c2cc(NC(=O)Nc3cccc4ccccc34)ccc2O[C@H]1CN(C)Cc1ccc(-c2ccccc2)cc1	-0.1	-1.7

Single entries from above.
O=C(CCn1cccc1)N1CCc2ccccc21 in A1 inhib is listed with 0.6
Cc1cc(C(=O)Nc2cccc3c2O[C@H](CN(C)Cc2ccc4c(c2)OCO4)[C@@H](C)CN([C@H](C)CO)C3=O)n(C)n1 in BJeLR viab HTS is listed with -5.2

Further structures follow.
SMILES	A1 inhib	BJeLR viab HTS
Cc1ccc(C(=O)C2C(=O)C(=O)N(CCN(C)C)C23C(=O)N(C)c2ccccc23)cc1 (centres undefined)	-0.1	9.5
O=C(NC(=S)NC12CC3CC(CC(C3)C1)C2)c1ccccc1	1.3	-1.5
Cc1ccc(S(=O)(=O)N(CCC(=O)O)Cc2ccccc2)cc1	0.7	-1.1
O=C(Nc1ccccc1)N1CCc2c([nH]c3ccccc23)C1C(F)(F)F (centres undefined)	0.3	-3.0
O=C(CCCn1c2ccccc2c2cn[nH]c(=O)c21)NCCc1ccccc1	0.8	0.8
NN(CCO)C(=S)NCc1ccc(Cl)cc1	0.5	0.0
C[C@H]1CN([C@@H](C)CO)C(=O)c2cc(NC(=O)Nc3ccc(C(F)(F)F)cc3)ccc2O[C@@H]1CN(C)Cc1ccccc1	0.0	0.0
Cc1noc(C)c1S(=O)(=O)N(C)C[C@@H]1Oc2ccc(NC(=O)Nc3ccc4c(c3)OCO4)cc2C(=O)N([C@@H](C)CO)C[C@@H]1C	-1.1	-3.2
C[C@@H]1CN([C@@H](C)CO)C(=O)c2cc(NC(=O)Cc3cn(C)c4ccccc34)ccc2O[C@H]1CN(C)S(=O)(=O)c1ccccc1	0.0	0.8
C=C[C@H]1C(O[C@@H]2O[C@H](CO)[C@@H](O)[C@H](O)[C@H]2O)OC=C2C(=O)N3CCc4c([nH]c5ccccc45)[C@H]3C[C@H]21 (some centres undefined)	-0.1	-3.3
O=C(NCc1nc(-c2ccc(C(F)(F)F)cc2)no1)Nc1ccc(F)cc1F	nt	-4.6
Cc1c2cnn(-c3ccccc3)c(=O)c2c(C)n1CCCC(=O)NCCc1ccccc1	0.1	-5.7

Continued (four carried over from the part before).
SMILES	A1 inhib	BJeLR viab HTS
C[C@@H]1CN([C@@H](C)CO)C(=O)c2cc(NC(=O)Cc3cn(C)c4ccccc34)ccc2O[C@H]1CN(C)S(=O)(=O)c1ccccc1	0.0	0.8
C=C[C@H]1C(O[C@@H]2O[C@H](CO)[C@@H](O)[C@H](O)[C@H]2O)OC=C2C(=O)N3CCc4c([nH]c5ccccc45)[C@H]3C[C@H]21 (some centres undefined)	-0.1	-3.3
O=C(NCc1nc(-c2ccc(C(F)(F)F)cc2)no1)Nc1ccc(F)cc1F	nt	-4.6
Cc1c2cnn(-c3ccccc3)c(=O)c2c(C)n1CCCC(=O)NCCc1ccccc1	0.1	-5.7
O=C(c1ccccc1)n1ccc2ccccc21	-0.4	-7.9
C[C@@H]1CN([C@H](C)CO)C(=O)c2cc(NC(=O)NC3CCCCC3)ccc2O[C@H]1CN(C)S(=O)(=O)c1cn(C)cn1	0.4	1.3
C[C@@H]1CN([C@H](C)CO)C(=O)c2cccc(NS(=O)(=O)c3cccs3)c2O[C@@H]1CN(C)C(=O)Nc1ccc2c(c1)OCO2	nt	-0.7
O=C(CCC(=O)N(Cc1ccccc1)Cc1ccccc1)Nc1ccc(F)cc1	0.0	-2.6
C[C@H]1CN([C@@H](C)CO)C(=O)c2cc(NS(=O)(=O)c3ccc(F)cc3)ccc2O[C@@H]1CN(C)Cc1ccc(Cl)c(Cl)c1	0.1	-5.2
CCC(C(=O)N1c2ccccc2Sc2ccc(C(F)(F)F)cc21)N1C(=O)c2ccccc2C1=O (centres undefined)	-0.9	-3.2
C[C@H](CO)N1C[C@H](C)[C@H](CN(C)S(C)(=O)=O)Oc2c(NC(=O)C3CCCCC3)cccc2C1=O	nt	-0.5
C[C@H]1CN([C@@H](C)CO)C(=O)c2cccc(NC(=O)Nc3ccc4c(c3)OCO4)c2O[C@@H]1CN(C)CC1CCCCC1	nt	1.5
Cc1c(C(=O)O)oc2ccc(S(=O)(=O)NCCC(C)C)cc12	0.5	-5.0
C[C@H](CO)N1C[C@H](C)[C@@H](CN(C)Cc2ccc(Cl)c(Cl)c2)Oc2ccc(NC(=O)Nc3ccc(C(F)(F)F)cc3)cc2C1=O	0.2	-3.3
Cc1noc(C)c1S(=O)(=O)Nc1ccc2c(c1)C(=O)N([C@H](C)CO)C[C@@H](C)[C@@H](CN(C)C(=O)Nc1ccc(C(F)(F)F)cc1)O2	-0.4	2.6
C[C@@H]1CN([C@H](C)CO)C(=O)c2cccc(NC(=O)c3nc4ccccc4s3)c2O[C@H]1CN(C)C(=O)Nc1cccc2ccccc12	nt	-0.8
C[C@H]1CN([C@@H](C)CO)C(=O)c2cc(NC(=O)c3ccncc3)ccc2O[C@H]1CN(C)S(=O)(=O)c1ccccc1	1.6	-4.5
C[C@@H]1CN([C@H](C)CO)C(=O)c2cc(NS(=O)(=O)c3cn(C)cn3)ccc2O[C@@H]1CN(C)C(=O)Nc1ccc(C(F)(F)F)cc1	0.2	0.1
CCOC(=O)C(C#N)C(c1cccnc1)c1[nH]c(C)nc1O (centres undefined)	1.3	4.1
COc1ccc([C@H]2COc3c(ccc(O)c3OC)C2)c(OC)c1O	0.5	-2.7
C=CCN=C(SC)N1CCN(C(=NCC=C)SC)CC1	0.4	1.1
C[C@@H]1CN([C@H](C)CO)C(=O)c2cc(NS(=O)(=O)c3ccc(Cl)cc3)ccc2O[C@@H]1CN(C)Cc1ccc(C(=O)O)cc1	0.0	-1.3
C[C@@H]1CN([C@H](C)CO)C(=O)c2cc(NS(C)(=O)=O)ccc2O[C@@H]1CN(C)Cc1ccncc1	-0.4	5.8
C[C@@H]1CN([C@H](C)CO)C(=O)c2cc(NC(=O)Nc3ccc4c(c3)OCO4)ccc2O[C@@H]1CN(C)S(=O)(=O)c1ccc(F)cc1	0.8	8.5
Cc1ccc(NC(=O)CCc2c(C)nc3c4c(C)cc(C)nc4nn3c2C)cc1	-0.2	7.2
COc1ccc(/C=C/C(=O)CC(=O)c2ccccc2O)cc1	nt	-0.3
C[C@@H]1CN([C@@H](C)CO)C(=O)c2cccc(N(C)C)c2O[C@@H]1CN(C)Cc1ccc2c(c1)OCO2	nt	1.6
CN(C)CCC(C)(O)Cc1ccccc1 (centres undefined)	0.7	0.3
Cn1c(=O)c2c(ncn2CC(=O)Nc2ccncc2)n(C)c1=O	-0.4	1.0
C[C@H](CO)N1C[C@H](C)[C@@H](CN(C)CC2CCCCC2)Oc2ccc(NC(=O)C3CCCCC3)cc2C1=O	0.0	0.8
COc1ccc(S(=O)(=O)Nc2ccc3c(c2)C(=O)N([C@H](C)CO)C[C@@H](C)[C@H](CN(C)S(=O)(=O)c2cn(C)cn2)O3)cc1	-0.1	15
C[C@@H]1CN([C@H](C)CO)C(=O)c2cc(NC(=O)Cn3cnnn3)ccc2O[C@@H]1CN(C)C(=O)NC1CCCCC1	-0.5	1.2
CCCOc1cc(C(N)=O)ccc1OC	-0.7	0.2
C[C@@H]1CN([C@H](C)CO)C(=O)c2cccc(NC(=O)Nc3cccc4ccccc34)c2O[C@@H]1CN(C)C(=O)Nc1ccc(F)cc1	nt	-3.3
Cc1ccc(S(=O)(=O)N(C)C[C@H]2Oc3c(NC(=O)c4ccc(-c5nccs5)cc4)cccc3C(=O)N([C@@H](C)CO)C[C@H]2C)cc1	nt	2.0
CN1C(=O)N(c2ccc(Cl)cc2)C(C)(O)CC1(C)C (centres undefined)	0.2	4.5
COc1ccc(NC(=O)N(C)C[C@H]2Oc3c(NS(=O)(=O)c4cn(C)cn4)cccc3C(=O)N([C@@H](C)CO)C[C@H]2C)cc1	nt	4.2
C[C@@H]1CN([C@@H](C)CO)C(=O)c2cccc(NS(=O)(=O)c3ccccc3)c2O[C@@H]1CN(C)S(=O)(=O)c1ccccc1	nt	1.3
COc1ccc(CCC(=O)Nc2ccc3nc(N4CCC(C)CC4)cc(C)c3c2)cc1	nt	7.3
Cc1sc2nc3c4ccccc4c(N4CCC(C)CC4)nn3c(=O)c2c1C	0.6	-1.9

The list is partial; the hit share may differ from the screen's.
